MenB inh = inhibitors of Mycobacterium tuberculosis MenB enzyme; 100,000 compounds, 0.43% hits; MenB enzyme assay, absorbance read-out; some hits fall short of the stated cut; AID 540299; inhibition, %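 (about 12 µg/mL by stock and volumes)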; P9WNP5;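 active means mean of two replicates above 30%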;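 further: 0% = no compound and 100% = wells with inactive enzyme; the first replicate is given; strong numbers were not always called active; inactives centre near -10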
Mtb MbtI inh = blocks the Mycobacterium tuberculosis siderophore enzyme MbtI. P9WFX0. purified MbtI enzyme, fluorescence intensity read-out. inhibition, %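 (about 17 µg/mL by stock and volumes)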. 100,000 compounds, 0.89% hits;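 active means above 50% in both replicates, above 80% if mildly self-fluorescent; inactive means the rest, strongly fluorescent compounds included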;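 further: 0% = mean of negative and 100% = mean of positive controls; one replicate is shown; some compounds called inactive have numbers as strong as hits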
Target sequence (P9WFX0 whole entry, looked up): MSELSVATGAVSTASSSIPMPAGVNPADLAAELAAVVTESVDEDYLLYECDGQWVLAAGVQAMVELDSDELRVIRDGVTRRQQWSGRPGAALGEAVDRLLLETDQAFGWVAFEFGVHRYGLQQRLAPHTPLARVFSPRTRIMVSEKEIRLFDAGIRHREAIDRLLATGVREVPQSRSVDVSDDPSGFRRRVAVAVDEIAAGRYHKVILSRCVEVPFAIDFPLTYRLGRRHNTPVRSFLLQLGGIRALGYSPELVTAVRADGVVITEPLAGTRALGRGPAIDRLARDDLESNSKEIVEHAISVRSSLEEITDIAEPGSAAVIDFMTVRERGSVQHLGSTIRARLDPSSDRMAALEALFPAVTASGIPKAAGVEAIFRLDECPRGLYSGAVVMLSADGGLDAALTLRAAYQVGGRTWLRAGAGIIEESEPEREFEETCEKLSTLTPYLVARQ
PV pol inh = poliovirus RNA polymerase inhibition; 150,000 compounds, 0.66% hits; % elongation, % (compound at 16.7 µg/mL); poliovirus polymerase elongation, fluorescence polarization; stronger effect = lower value; P03300; in the data active means % elongation below about 90%; further: some results filed as inactive read as strong as hits
Target sequence (P03300 1749-2209 limits assumed): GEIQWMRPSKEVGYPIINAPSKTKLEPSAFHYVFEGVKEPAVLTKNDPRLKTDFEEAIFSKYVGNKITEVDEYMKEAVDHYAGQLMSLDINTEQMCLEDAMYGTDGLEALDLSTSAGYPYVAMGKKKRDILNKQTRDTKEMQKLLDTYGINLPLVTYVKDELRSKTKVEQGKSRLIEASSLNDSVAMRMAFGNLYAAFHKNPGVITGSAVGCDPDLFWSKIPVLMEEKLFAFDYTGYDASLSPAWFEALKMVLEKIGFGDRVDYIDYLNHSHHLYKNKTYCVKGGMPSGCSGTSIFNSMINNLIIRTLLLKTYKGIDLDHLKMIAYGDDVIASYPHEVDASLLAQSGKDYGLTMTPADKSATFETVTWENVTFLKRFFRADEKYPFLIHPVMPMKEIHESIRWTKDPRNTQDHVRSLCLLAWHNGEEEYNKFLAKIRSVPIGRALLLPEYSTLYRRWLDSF
PV pol inh intensity = also measured in PV pol inh; calls as there; % elongation; measured here: total intensity read-out; formula for this scale not given here;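 total fluorescence in place of polarization; lower means less elongation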
Starred values were filed as active, the others as inactive; x = not tested or not shown.

no. | Molecule | MenB inh | Mtb MbtI inh | PV pol inh | PV pol inh intensity
1 | N#Cc1ccc(NC(=O)C(F)(F)F)cc1 | -16 | 2 | 104 | 100
2 | OC(CC#CCN1CCOCC1)(c1ccccc1)c1ccccc1 | -26 | -18 | 104 | 101
3 | COc1ccc(C2CC(=O)NC(NC(=O)CCCOc3ccccc3)=N2)cc1 (configuration not stated) | -10 | -19 | 102 | 102
4 | Nc1nc2ncc(C(=O)c3cc(F)ccc3O)cc2s1 | -2 | -14 | 123 | 126
5 | O=C(CCn1cccc1)Nc1ccccc1 | -11 | -10 | 105 | 98
6 | COc1cc(C(=O)N2CCCN(c3nc4cc(C)ccc4cc3C#N)CC2)cc(OC)c1OC | -15 | -10 | 104 | 103
7 | Cc1ccc(S(N)(=O)=O)cc1C(=O)NCC(C)C | 0 | -10 | 100 | 101
8 | COC(=O)CSc1nc2ccccc2n1-c1ccc(C)cc1 | x | -6 | 106 | 110
9 | CCOC(=O)/C(C#N)=C\c1ccc(-c2cccc(C(F)(F)F)c2)o1 | -17 | -5 | 105 | 105
10 | Cn1nc(C(=O)N2CCCC2c2nc3ccccc3s2)c2ccccc2c1=O (configuration not stated) | -2 | -5 | 103 | 103
11 | CCCc1ccc(OC(=O)c2cccs2)cc1 | -22 | 1 | 104 | 99
12 | c1ccc(SCc2cn3cccnc3n2)cc1 | 11 | 13 | 111 | 99
13 | COC(=O)C1=CN(CCCN2CCCC2=O)C=C(C(=O)OC)C1c1cccc(F)c1 | -51 | 88 | 101 | 102
14 | CC(C)C(NC(=O)COc1ccccc1)C(C)C | -8 | -11 | 100 | 100
15 | COc1ccc(NC(=O)N2CCc3cc(OC)c(OC)cc3C2c2ccccc2)cc1 (configuration not stated) | -9 | -7 | 103 | 105
16 | O=C(c1ccccc1)N1N=C(c2ccccc2)CC1c1ccc2nccnc2c1 (configuration not stated) | -9 | -6 | 102 | 109
17 | CN(CCC#N)C(=O)C1CCN(S(=O)(=O)c2ccc(-n3cnnn3)cc2)CC1 | -20 | -1 | 104 | 102
18 | CNC(=O)NCCN1CCCC1=O | -25 | -3 | 104 | 103
19 | COc1cc(C)nc(OCCNC(=O)COc2ccc(Cl)cc2C)n1 | -5 | -25 | 100 | 104
20 | CCc1cn(C2CC(O)C(CO)O2)c(=O)[nH]c1=O (configuration not stated) | -8 | x | 103 | 104

Some of the entries so far, with two lines to a compound:
Values in the order – MenB inh	Mtb MbtI inh	PV pol inh	PV pol inh intensity
(12) c1ccc(SCc2cn3cccnc3n2)cc1
→ 11	13	111	99
(1) N#Cc1ccc(NC(=O)C(F)(F)F)cc1
→ -16	2	104	100

Additional entries follow.
no. | Molecule | MenB inh | Mtb MbtI inh | PV pol inh | PV pol inh intensity
21 | CCCCn1c2c(c3ccccc31)CCc1nonc1-2 | 1 | 142 | 101 | 104
22 | CCN(C(=O)Cn1nnc(-c2ccc3c(c2)OCO3)n1)c1ccccc1 | -15 | x | 104 | 111
23 | CN(CC(=O)c1c(N)n(C)c(=O)n(C)c1=O)C1CCS(=O)(=O)C1 (configuration not stated) | -16 | -3 | 103 | 109
24 | O=C(Nc1cccc(C(=O)N2CCOCC2)c1)NC1CCCCC1 | -9 | -3 | 103 | 100
25 | Cc1n[nH]c(=S)n1CC1CCCO1 (configuration not stated) | -16 | -6 | 103 | 102
26 | COc1ccc(NC(=S)NCC(OC)OC)cc1 | -3 | -15 | 100 | 104
27 | CCc1ccc(Nc2nnnn2-c2ccccc2)cc1 | 14 | -10 | 102 | 98
28 | CCC(CC)NC(=O)c1ccc2nc[nH]c2c1 | 8 | 4 | 99 | 102
29 | Cc1sc2nc(CSC(C)C(=O)N=c3sc4ccccc4n3C)[nH]c(=O)c2c1C (configuration not stated) | 13 | 6 | 104 | 103
30 | CN(C(=O)c1ccccc1NS(=O)(=O)c1ccc(F)cc1)C1CCCCC1 | x | -1 | 103 | 100
31 | CCOC(=O)c1ccc(NC(=O)C2OCCc3ccccc32)cc1 (configuration not stated) | 15 | -2 | 99 | 104
32 | CCOC(=O)c1cc(C(C)(C)C)n(-c2ccc(N3CCOCC3)cc2)c1C | -11 | -9 | 101 | 106
33 | CCN1C[C@]2(COC)CC[C@H](O)[C@@]34C5C[C@@H]6[C@@H](OC)C[C@@](O)(C5[C@H]6OC(C)=O)[C@@H](CC23)[C@@H]14 (some centres not stated) | 13 | 8 | 99 | 102
34 | CC(C)NC(=O)N1CCn2cccc2C1C (configuration not stated) | 9 | 4 | 98 | 104
35 | O=S(=O)(c1cccc(Cl)c1)N1CCc2ccccc2C1 | x | -4 | 102 | 97
36 | CC(O)CC12CC3CC(CC(C3)C1)C2 (configuration not stated) | 12 | -3 | 100 | 103
37 | Cc1cc(C)nc(SCC(=O)NN=Cc2cccs2)n1 | -30 | 18 | 104 | 102
38 | COc1ccc(-c2oc3ccccc3c(=O)c2O)cc1 | -18 | -20 | 106 | 101
39 | CSC1=NCN(CCCO)CN1 | -11 | -9 | 104 | 99
40 | CN1/C(=C\C=N\NC(N)=O)C(C)(C)c2ccccc21 | -17 | 11 | 121 | 200

Reprinted from the part before: two compounds, then new ones.
no. | Molecule | MenB inh | Mtb MbtI inh | PV pol inh | PV pol inh intensity
39 | CSC1=NCN(CCCO)CN1 | -11 | -9 | 104 | 99
40 | CN1/C(=C\C=N\NC(N)=O)C(C)(C)c2ccccc21 | -17 | 11 | 121 | 200
41 | C=CCN(CC=C)C(=O)CSc1ccc2ccccc2c1 | x | -8 | 102 | 103
42 | COC(=O)CCn1ccc(C)n1 | 0 | 4 | 100 | 100
43 | COc1ccc(N(C)C(=O)C2CCN(S(=O)(=O)c3cccc4nonc34)CC2)cc1 | 1 | -7 | 104 | 102
44 | O=C(NCCO)c1cn(Cc2ccccc2)nc1-c1ccccc1 | 4 | -1 | 103 | 113
45 | CCOC(=O)N1CCc2c(sc3ncn(C)c(=O)c23)C1 | 9 | -2 | 102 | 106
46 | O=C(Oc1ccc(Br)cc1)c1cccnc1N1CCCC1 | -13 | 17 | 103 | 102
47 | CN1C(c2ccccc2)=CC(c2ccccc2)n2ncnc21 (configuration not stated) | x | -3 | 104 | 105
48 | Cc1cccc(/C=N/NC(=O)c2ccccn2)c1O | -78 | -6 | 104 | 104
49 | COC(=O)CC1Oc2ccccc2N(Cc2ccc(C)cc2)C1=O (configuration not stated) | -20 | -8 | 101 | 103
50 | CCOC(=O)/C=C1\SC(=O)CN1CC(=O)Nc1ccccc1 | -20 | -2 | 46 | 242
51 | COc1cc(N2C(=O)c3ccccc3C2=O)nc(OC)n1 | -8 | 5 | 101 | 103
52 | CCCCn1c(CCCNC(=O)C(C)C)nc2ccccc21 | -23 | -9 | 103 | 108
53 | CC(C)CCn1c(CNC(=O)c2ccccc2)nc2ccccc21 | -22 | -11 | 103 | 105
54 | CC(C)OC(=O)c1ccc2[nH]c3c(c2c1)CCCC3 | -24 | 18 | 103 | 105
55 | O=C(OCc1ccco1)c1cccnc1Cl | x | -2 | 102 | 100
56 | C/C(=N/O)c1c(C)[nH]c2ccccc12 | -3 | 5 | 102 | 103
57 | Cc1cc(C(N)=O)c(C)n1CCCn1ccnc1 | 9 | 4 | 108 | 105
58 | COCC(C)n1c(C)ccc1C (configuration not stated) | x | 1 | 97 | 115
59 | O=c1c(Br)c(NCc2ccco2)cnn1-c1ccccc1 | -2 | 1 | 99 | 98
60 | O=C(NC1CC1)C1=CCN(S(=O)(=O)c2ccc(Br)cc2)CC1 | -10 | 0 | 102 | 103

Remaining list, next part:
no. | Molecule | MenB inh | Mtb MbtI inh | PV pol inh | PV pol inh intensity
61 | COc1ccc(-c2nc3cc(N=Cc4ccccc4O)ccc3o2)cc1 | -39 | -133 | 100 | 102
62 | O=C(O)c1sccc1S(=O)(=O)Nc1ccccc1N1CCOCC1 | 9 | -14 | 101 | 99
63 | CC1Oc2ccccc2OC1C(=O)N1CCOCC1 (configuration not stated) | -1 | x | 104 | 110
64 | FC(F)(F)c1ccnc(NCCNC(=S)NCc2ccco2)n1 | -30 | -8 | 108 | 110
65 | NCCc1ccn[nH]1 | -1 | -15 | 99 | 102
66 | O=C(COC(=O)Cn1[nH]c(=O)c2ccccc2c1=O)Nc1ncc(Cl)cc1Cl | 2 | 19 | 89 | 135
67 | Cc1nn(Cc2ccccc2Cl)c(Cl)c1C(=O)OCC(=O)NCc1ccco1 | -6 | 7 | 106 | 107
68 | CCN(CC)S(=O)(=O)c1cccc(C(=O)O)c1 | 3 | -8 | 103 | 99
69 | CNC(=O)/C(C#N)=C/c1c(Oc2ccccc2)nc2ccccn2c1=O | -223 | 13 | 98 | 104
70 | C#C[C@]1(O)CC[C@H]2[C@@H]3CCC4=CC(=O)CC[C@@H]4[C@H]3CC[C@@]21C | -10 | 0 | 97 | 103
71 | COc1ccc(C(=O)NC(=O)CSc2nc3ccccc3n2CCC#N)cc1 | 3 | -2 | 105 | 127
72 | CSc1ccc(Sc2ccc(SC)cc2)cc1 | -4 | -5 | 99 | 100
73 | Cc1cccc(C)c1Nc1nn2c(=O)c3ccccc3nc2s1 | -33 | 51 | 88* | 89*
74 | O=C(NCCc1ccccc1)NC1CCCCC1 | -8 | -5 | 101 | 100
75 | O=C(O)CC1(CC(=O)N2CCN(C(=O)CC3(CC(=O)O)CCCCC3)CC2)CCCCC1 | -27 | -14 | 103 | 107
76 | COc1ccc(C(=O)CSc2nnc(C3CCCCC3)n2N)c(OC)c1 | -19 | -3 | 102 | 96
77 | COc1ccc(N2CCN(C(=O)COC(=O)Cc3ccccc3)CC2)cc1 | -22 | -4 | 105 | 108
78 | CCCCNS(=O)(=O)c1ccc(/C(C)=N/NC(=O)c2ccc(N)cc2)cc1 | -15 | -1 | 104 | 110
79 | COc1cccc2c1OC1(CCN(C(C)C)CC1)N1N=C(c3cccs3)CC21 (configuration not stated) | -29 | -109 | 106 | 100
80 | S=C(NCC1CC1)Nc1ccc2[nH]ccc2c1 | -12 | -2 | 99 | 103

Some of these compounds in order of molecular weight, low to high.
no. | Molecule | MenB inh | Mtb MbtI inh | PV pol inh | PV pol inh intensity
80 | S=C(NCC1CC1)Nc1ccc2[nH]ccc2c1 | -12 | -2 | 99 | 103
77 | COc1ccc(N2CCN(C(=O)COC(=O)Cc3ccccc3)CC2)cc1 | -22 | -4 | 105 | 108
71 | COc1ccc(C(=O)NC(=O)CSc2nc3ccccc3n2CCC#N)cc1 | 3 | -2 | 105 | 127

A few values from the list:
Reading of compound 2 in PV pol inh: 104
Reading of compound 66 in MenB inh: 2

Following part:
no. | Molecule | MenB inh | Mtb MbtI inh | PV pol inh | PV pol inh intensity
81 | O=C(O)CCSc1ccc(Cl)cc1 | x | 9 | 102 | 106
82 | Cc1ccccc1Nc1nc(N)nc(CSc2ccc(S(=O)(=O)N(C)C)cn2)n1 | -28 | 32 | 102 | 108
83 | CCOC(=O)CCC(=O)O[C@H]1[C@H](O[C@@H]2[C@@H](C)[C@H](O[C@H]3C[C@@](C)(OC)[C@@H](O)[C@H](C)O3)[C@@H](C)C(=O)O[C@H](CC)[C@@](C)(O)[C@H](O)[C@@H](C)C(=O)[C@H](C)C[C@@]2(C)O)O[C@H](C)C[C@@H]1N(C)C | -4 | -11 | 99 | 101
84 | S=c1sc2c(N3CCN(C/C=C/c4ccccc4)CC3)ncnc2n1-c1ccccc1 | -5 | x | 103 | 102
85 | CCOC(=O)c1ccc(NS(=O)(=O)c2cc(-c3cc(C)no3)ccc2C)cc1 | -17 | 10 | 102 | 99
86 | COc1cc(C(=O)Nc2c(C(=O)c3ccccc3)oc3ccccc23)cc(OC)c1OC | -11 | 0 | 100 | 104
87 | COc1ccccc1N(CC(O)CN1CCOCC1)S(=O)(=O)c1ccc(C)cc1 (configuration not stated) | -2 | -2 | 104 | 103
88 | Cc1cccc(NC(=O)COC(=O)CN=C2NS(=O)(=O)c3ccccc32)c1C | -8 | -9 | 109 | 108
89 | Nn1c(Cc2ccccc2F)nnc1SCC(=O)c1ccc[nH]1 | -10 | 15 | 100 | 101
90 | COc1ccc(-n2cnnc2SCCC#N)cc1 | -16 | -11 | 105 | 109
91 | COC(=O)c1cc2ccccc2c(-c2c(O)ccc3ccccc23)c1O | 5 | x | 102 | 107
92 | FC(F)(F)c1ccnc(Sc2n[nH]c(C(F)(F)F)n2)c1 | 5 | 8 | 103 | 101
93 | CCOC(=O)Cc1[nH]nc2c1C(c1ccc(Cl)cc1)C(C#N)=C(N)O2 (configuration not stated) | -25 | x | 106 | 107
94 | C/C(=C/c1ccccc1)C(=O)N1CCN(Cc2ccccc2)CC1 | 3 | -1 | 101 | 104
95 | NC(=O)c1ccccc1N | -4 | 104 | x | x
96 | COc1cc(SC#N)ccc1O | -7 | x | 113 | 117
97 | N#CC1(N)CCCC1 | -30 | -4 | 102 | 107
98 | CS(=O)c1nc(-c2ccc(Br)cc2)cc(-c2ccccc2)c1C#N (configuration not stated) | -5 | 13 | 101 | 103
99 | CCOc1ccc(CC(=O)Nc2ccccc2)cc1OCC | -17 | x | 104 | 103
100 | S=c1nc(-c2ccco2)n(Cc2ccccc2)c(=S)n1C(=NCc1ccccc1)c1ccco1 | -59 | 22 | 99 | 103

Continued.
no. | Molecule | MenB inh | Mtb MbtI inh | PV pol inh | PV pol inh intensity
101 | CCc1cc(C(O)(C(F)(F)F)C(F)(F)F)c(O)c(C(O)(C(F)(F)F)C(F)(F)F)c1 | -1 | -7 | 99 | 99
102 | Cc1ccc(N2C(=O)C(N3C(=O)c4ccccc4C3=O)C2c2ccc3c(c2)OCO3)cc1 (configuration not stated) | 1 | 2 | 103 | 102
103 | Cc1cc(NC(=O)Nc2ccc(F)cc2)c(C(F)(F)F)o1 | -6 | 0 | 101 | 103
104 | CC1(C)CC(=O)c2c(oc3ccc(NS(=O)(=O)c4ccc5ccccc5c4)cc23)C1 | -4 | -2 | 101 | 106
